# PINK1 expr mod: A Quantitative High throughput Screen to Identify Chemical Modulators of PINK1 Expression; PINK1 immunofluorescence, high-content cytometry, 24 h; AID 624263, 2012; hit rate 0.2% among 410,000; Potency, µM (highest dose often 76.6 µM), without a hit: top-dose activation (PINK1 increase), hits mostly activators; active = well fitted activation curve with a large enough effect; inconclusive = small, poorly fitted or top-dose-only effect; inactive = flat fitted curve, though single readings scatter; cell line not stated here;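 note: potency is the fitted concentration of half-maximal effect; % of control where 0% means no effect; nearly all actives have a fitted effect of over 65% in size; a mitochondrial uncoupler was the plate control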
#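 Compound titrations (5 concentrations, 24 h) on a stable cell line; DMSO and CCCP controls. Endpoint: fixed-cell PINK1 immunofluorescence with mitochondrial, cell and nuclear markers, scanned by microplate cytometer.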
# CtBP-E1A blk: qHTS Assay for Inhibitors of the CtBP/E1A Interaction. activity change, % (no concentration beside the values). hit rate 0.49% among 340,000. CtBP / adenovirus E1A interaction (AlphaScreen). AlphaScreen GST-E1A/His-CtBP binding, 1536-well; hits give low values; control for the full effect not named in the record. AID 651724, 2012; in the data active means activity change below about -65%; inconclusive means about -30% to -65%; inactive means above about -30%; note: % is set by controls: 0 for no effect and ±100 for the full control effect; compound concentration not given in the record
#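 In 5 uL wells, 23 nL compound meets equimolar GST-E1A and His-CtBP (5X stock 125 nM each) for 2 h, 37 °C. Beads (5X, 50 ug/mL) then 1 h, 37 °C, dark.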
# Sfp inh: qHTS Assay for Inhibitors of Bacillus subtilis Sfp phosphopantetheinyl transferase (PPTase) | Biochemical Sfp PPTase activity, qHTS | 4'-phosphopantetheinyl transferase ffp (Bacillus subtilis), Q9F4F7 | hit rate 3.5% among 310,000 | Potency, µM, for the others: max response, negative = inhibition, hits mostly inhibitors; active = well fitted inhibition curve with a large enough effect; inconclusive = small, poorly fitted or top-dose-only effect, or another doubt; inactive = no such curve, though single readings can be large or run the other way;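 note: the enzyme is Sfp with the accession as filed and its product quenches rhodamine fluorescence; potency is the fitted concentration of half-maximal effect; 0% = enzyme reaction without inhibitor and -100% = no enzyme wells; top concentration of the series not given in the record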
#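 Fluorescence-quenching assay: 15 nM Sfp-PPTase preincubated 15 min at room temperature with compound, then 5 uM rhodamine-CoA and 12.5 uM BHQ-2-labelled YbbR peptide added. Fluorescence (ex 525/em 598 nm) read at start and after 30 min; difference gives rate.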
# TRPV1 potentiator: HTS Assay for Compounds that Act as Potentiators of the Vanilloid Receptor 1 | potentiation, % at 8.33 µM | AID 540277, 2011 | TRPV1-expressing cells, Fluo-8 calcium influx, capsaicin EC20 potentiation; host cell line not named in the record; control for the full effect not named in the record | hit rate 0.02% among 320,000; active means potentiation above 80%; inconclusive means 30% to 80%; inactive means below 30%; note: 0% is about no effect
# Target sequence (Q8NER1 whole entry, looked up): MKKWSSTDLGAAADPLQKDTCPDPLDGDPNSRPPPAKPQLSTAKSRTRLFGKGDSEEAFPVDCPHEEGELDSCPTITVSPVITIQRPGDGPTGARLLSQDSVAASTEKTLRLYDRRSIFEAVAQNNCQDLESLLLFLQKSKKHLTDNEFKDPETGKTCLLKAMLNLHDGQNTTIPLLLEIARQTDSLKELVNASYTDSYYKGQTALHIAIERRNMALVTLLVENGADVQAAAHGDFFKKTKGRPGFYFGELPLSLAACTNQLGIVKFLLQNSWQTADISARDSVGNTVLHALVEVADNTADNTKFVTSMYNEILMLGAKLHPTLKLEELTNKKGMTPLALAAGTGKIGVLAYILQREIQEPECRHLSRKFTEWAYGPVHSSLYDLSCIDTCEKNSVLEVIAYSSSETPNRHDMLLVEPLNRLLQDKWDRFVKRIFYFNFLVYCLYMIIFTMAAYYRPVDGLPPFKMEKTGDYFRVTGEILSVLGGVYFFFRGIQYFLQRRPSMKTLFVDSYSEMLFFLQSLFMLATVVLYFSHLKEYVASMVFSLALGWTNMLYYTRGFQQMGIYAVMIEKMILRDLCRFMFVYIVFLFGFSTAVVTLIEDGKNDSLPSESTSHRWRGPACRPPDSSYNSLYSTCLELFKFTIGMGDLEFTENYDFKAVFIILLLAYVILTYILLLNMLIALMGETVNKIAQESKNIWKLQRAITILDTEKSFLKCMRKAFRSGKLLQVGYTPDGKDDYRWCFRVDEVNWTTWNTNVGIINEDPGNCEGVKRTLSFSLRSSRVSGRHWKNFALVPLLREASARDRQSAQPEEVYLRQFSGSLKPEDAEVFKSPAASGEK
#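 TRPV1-expressing cells were cultured overnight at 35.5C and loaded with Fluo-8 calcium dye for 40 to 90 min at room temperature. After a 10 s baseline, compound was added and calcium influx was read kinetically for 3 min (ex 480/em 520 nm).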
# Six1-Eya2 inh: qHTS Assay for Inhibitors of the Six1/Eya2 Interaction; activity change, % (test concentration not listed); AlphaScreen GST-Six1/His-Eya2 binding, biochemical; hits give low values; control for the full effect not named in the record; hit rate 0.56% among 360,000; AID 651725, 2012; Homeobox protein SIX1 (Homo sapiens) + Protein phosphatase EYA2 (Homo sapiens), …; in the data active = activity change below about -65%; inconclusive = about -30% to -65%; inactive = above about -30%; note: % is set by controls: 0 for no effect and ±100 for the full control effect; compound concentration not given in the record
#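 GST-Six1 + His-Eya2 (5X stock: 250/500 nM); Tris pH 8.0, 300 mM NaCl, 0.05% BSA, 0.02% Tween 20; GSH donor/Ni acceptor beads; 1 h 37 °C dark; AlphaScreen readout.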
# D2 ag: Beta-Arrestin HTS for Positive Allosteric Modulators of the Human D2 Dopamine Receptor: Agonists. D(2) dopamine receptor (Homo sapiens), P14416. DiscoveRx PathHunter D2 beta-arrestin, luminescence, 90 min; 100% = 57 uM dopamine signal. activation, % (no concentration beside the values). hit rate 0.084% among 360,000. AID 624465, 2012; in the data active = activation above about 40%; inconclusive = about 15% to 40%; inactive = below about 15%; note: compound concentration not given in the record; the text of the record calls up to 30% inactive
#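 DiscoveRx PathHunter D2 beta-arrestin cells (2,100/well) attached overnight, then compound-stimulated 90 min at 37 C in HBSS/10 mM HEPES/0.1% Tween-20 buffer; beta-galactosidase complementation read by luminescence after 1 h at ambient temperature. Dopamine 57 uM final (EC100) as control.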
# D2 PAM: Beta-Arrestin HTS for Positive Allosteric Modulators of the Human D2 Dopamine Receptor: Potentiators; potentiation, % (test concentration not listed); DiscoveRx D2 beta-arrestin cells, luminescence, 90 min; 100% = 57 uM dopamine signal; hit rate 0.23% among 360,000; D(2) dopamine receptor (Homo sapiens), P14416; active = potentiation of 50% or more; inconclusive = 30% to 50%; inactive = 30% or less;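 note: compound concentration not given in the record; tested on top of an EC20 dose of dopamine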
#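 PathHunter D2 cells, attached overnight at 37 deg C, received compound in DMSO plus dopamine at EC20 (50 nM final) for 90 min at 37 deg C. Beta-arrestin recruitment was read as luminescence after 1 h with detection reagent at ambient temperature.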
# * marks the source's active call; other numbers are inactive results; ? = inconclusive; . = no result given; & = joins results of further samples; [ ] = remark or other dose.
SMILES,PINK1 expr mod,CtBP-E1A blk,Sfp inh,TRPV1 potentiator,Six1-Eya2 inh,D2 ag,D2 PAM
O=C(NCCCc1ccccc1)c1cccc(Br)c1,1.6%,.,.,.,9,-6.5,-24
CCOC(=O)N1CCN(c2c(N3CCC(N4CCCCC4)CC3)c(=O)c2=O)CC1,1.0%,23,19%,-7,10,2.3,-3
O=C(CSc1nnc(CSc2nc3ccccc3s2)o1)NC1CCCCC1,0.5%,3,9%,29,-3,-1.5,-26
CCN(CC)CCNC(=O)Cn1cnc2sc(C)c(S(=O)(=O)N3CCOCC3)c2c1=O,-1.8%,7,22%,10,4,-1.3,0
Cc1ccc(CS(=O)Cc2ccc(C(=O)NC3CCCCCC3)o2)cc1 (centres undefined),-0.4%,-1,-16%,-18,4,-0.6,-9
Cc1cc(=O)n2nc(N3CCC(C(=O)NCc4ccc(Cl)cc4)CC3)sc2n1,2.6%&1.5%,.,7%,-5,-65*,2.8,-7
CNNCc1ccc(C(=O)NC(C)C)cc1,1.6%,0,-24%,.,5,-5.3,-10
Cc1cc(OCCCCCNCCO)ccc1Cl,-3.1%[38.3 µM],3,-8%,-1,9,-2.9,-14
CCOC(=O)N1CCN(C(=O)CSCc2ccccc2C)CC1,-0.4%,6,5%,-6,-7,0.1,-3
COC(=O)[C@@H](Cc1ccccc1)NC(=O)NCCc1ccccc1,0.6%,9,3%,-11,0,-2.3,-3
Cc1ccccc1NC1=C/C(=N\S(=O)(=O)c2cccs2)c2ccccc2C1=O,-5.1%,-85*,-18%,14,-84*,-3.1,1
O=C(CCC1CCCC1)N1CCC(N2CCCCCC2)CC1,-2.0%,3,-5%,26,3,-0.7,24
COc1ccccc1CNC(=O)c1ccc(CS(=O)(=O)c2ccc(C)cc2)o1,1.0%,0,12%,-33,-5,-1.4,0
O=C(CSc1ncccn1)NC(=O)Nc1ccc2c(c1)OCCO2,-0.5%,5,5%,16,-6,-0.6,-5
CC(=O)Nc1c(O)nc(SCC(=O)Nc2cccc(C)c2)[nH]c1=O,0.1%[38.3 µM],5,-9%,8,0,0.1,-16
COc1ccc(CC(=O)NC(C)c2nnc(SCCC(=O)Nc3ccccc3)n2C)cc1 (centres undefined),0.8%,0,12%,8,18,-4.2,3
Cc1cccc(NC(=O)NNC(=O)c2c(Cl)c(C)nn2C)c1,13%,-2,0%,16,11,-6.6,-1
Cc1ccc(C)c(NC(=O)CSc2nnc(CSc3nc(C)cc(C)n3)n2Cc2ccco2)c1,4.2%,-3,45µM*,1,1,-1.3,-20
O=C(NCC(c1ccco1)N1CCCCC1)c1ccc(COc2ccc(Cl)cc2)cc1 (centres undefined),?,6,.,.,-9,-0.2,-6
FC(F)(F)c1ccc(N/N=C/c2cccnc2)nc1,3.2%,3,14%,-23,6,-4.8,-4
CCOC(=O)c1sc(N)c(C#N)c1CSc1nnc(C2CCCCC2)n1N,0.9%,-5,4%,-11,-7,-3.2,-2
CCn1c(=O)c(C(=O)NCc2ccc(OC)cc2)c(O)c2ccccc21,-1.7%,7,4%,7,9,-2.2,4
COc1ccc(NC(=O)CSc2c3c(nc4cc(Cl)ccc24)CCCC3)cc1OC,-2.3%,-5,15%,-1,2,-9.5,-10
CCC(C)NC(=S)NNC(=O)c1ccncc1 (centres undefined),1.8%,-6,-7%,?,4,-2.9,-9
O=C(NCCN1CCc2ccccc2C1)Nc1ccc([N+](=O)[O-])cc1,6.0%,.,6%,3,0,-3.8,-20
Cc1cccc(NC(=O)CNC(=O)CSc2nnc(C(F)(F)F)n2C)c1C,0.7%,-8,.,15,-4,0.7,-7
c1ccc(CNCC2COc3ccccc3O2)cc1 (centres undefined),-1.9%,6,10%,5,13,0.9,-27
CCCCn1c(N)c(N(CC)C(=O)c2cnc(C)cn2)c(=O)[nH]c1=O,-0.5%,-12,.,-8,0,6.7,-4
c1ccc2c(CN3CCSCC3)cccc2c1,2.8%,.,?,-10,3,-3.9,-29
COC(=O)N1C/C=C\C(c2ccc(OC)cc2)N(Cc2ccc(F)cc2)C(=O)C1 (centres undefined),-1.1%,0,30%&13%[activator],14,30,-2.4,-2
COC(=O)c1ccc[n+](CCc2c[nH]c3ccccc23)c1,-0.3%,7,.,.,2,-3.5,-18
Cc1cc(NC(=O)c2ccc3c(c2)OCCO3)no1,8.4%,4,23%,-9,3,0.1,-6
CCn1c(N2CCN(C(=O)NC3CCCCC3)CC2)nc2ccccc21,0.6%,0,3%,-2,6,-1.5,4
C=C(C)c1cccc(C(C)(C)NC(=O)N2CCN(c3ccccc3OC)CC2)c1,1.9%,2,20%,20,3,-3.4,-10
Cc1sc2c(c1C)C(=O)NC(c1ccccc1F)N2 (centres undefined),-1.4%,19,7.9µM*,3,4,-5.2,0
Cn1c(=O)[nH]c(=O)c2c1nc(Br)n2CCCO,-3.1%[38.3 µM],-4,5%,6,-4,-3.0,7
CS(=O)(=O)N1CCC(C(=O)Nc2cccc([N+](=O)[O-])c2)CC1,0.3%,.,6%,-1,3,2.5,-19
CCc1ccc(C(=O)NNc2cc(Cl)cc(Cl)c2)cc1,2.0%,0,5%,.,14,-4.4,-6
O=C1NC(c2ccc(Cl)cc2)Nc2ccccc21 (centres undefined),-1.0%,-3,-2%,-7,16,-5.0,-7
COc1ccccc1/C=C/C(=O)OCc1nc2ccccc2c(=O)[nH]1,0.1%,2,-7%,15,3,-1.4,-9
Cc1cccc(NC(=O)CN(C)CC(=O)NC(c2ccccc2)c2ccccc2)c1C,2.8%,-5,.,-5,-4,-0.1,-16
COc1ccc(NC(=S)N2CCC(N(C)CCN3CCOCC3)CC2)cc1,0.5%,1,19%,9,9,0.9,-2
COc1ccc(S(=O)(=O)N2CCC(C(N)=O)(N3CCCCC3)CC2)cc1OC,-0.3%,5,-28%,-4,6,-2.9,-5
O=C(C1CCN(Cc2ccc(Cl)cc2)CC1)N1CCN(C(c2ccccc2)c2ccccc2)CC1,8.9%,2,45µM*,-10,-6,-0.8,-29
CNc1ccccc1-n1ccc(-c2ccccc2)n1,0.3%,6,-27%,-3,-1,-4.1,-7
Cc1cccc(C)c1OCc1nc2ccccc2c(=O)n1/N=C/c1c[nH]c2ccccc12,0.1%,23,37%[activator],-3,10,-1.0,2
COc1cccc(CN2CCNC(=O)C2CC(=O)NCCn2ccc3ccccc32)c1OC (centres undefined),1.0%,.,1%,-4,-8,1.6,-4
Nc1nc(SCC(=O)Nc2ccc([N+](=O)[O-])cc2)n[nH]1,2.1%,0,9%,10,5,3.5,-2
c1ccc2c(N3CCCCC3)nc(N3CCCCC3)nc2c1,?,12,?,0,1,-5.3,-11
Cc1nn(Cc2ccccc2)c(Cl)c1C(=O)OCc1nnc(-c2ccc(Cl)cc2)o1,-0.5%,-1,8%,-1,2,-1.6,4
O=C(CSc1nc2c(cnn2-c2ccc(F)cc2)c(=O)[nH]1)N1CCCCCC1,8.3%,-8,-9%,8,7,-1.4,-7
C/C(=N\NC(=O)c1cc(O)ccc1O)c1cccc(NC(=O)c2cccc(Cl)c2)c1,8.1%,?,?,-11,-21,9.4,6
CC(C)OC(=O)N(C)C[C@@H]1OCc2cnnn2CCCC(=O)N([C@@H](C)CO)C[C@@H]1C,-1.1%,5,.,.,5,-7.3,-7
C[C@@H]1C(=O)O[C@H]2CC34[C@H]5C[C@@H](C(C)(C)C)[C@]36[C@@H](OC(=O)[C@@H]6O)O[C@@]4(C(=O)O5)[C@]21O (some centres undefined),4.9%,-22,.,3,9,-2.8,8
NC(=O)COc1ccccc1,-0.7%,2,6%,-2,2,-2.7,-2
Nc1nnc(SCn2nnc3ccccc3c2=O)s1,0.3%,.,-3%,1,0,-4.9,-4
CC(C)(C)NC(=O)CN(C(=O)c1snc(C(=O)NC2CCCCC2)c1N)c1ccccc1F,4.2%,9,8%,-13,11,2.5,0
Cc1nn(-c2ccccc2)c2c1C1(C(=O)N(C)c3ccccc31)C(C#N)=C(N)O2 (centres undefined),-0.7%,-8,-4%,1,0,7.1,?
O=C(OC(C(=O)Nc1cc(Cl)cc(Cl)c1)c1ccccc1)C1=COCCO1 (centres undefined),0.6%,0,4%,11,23,-2.0,-7
O=C(O)c1ccc(N/N=C/c2ccncc2)cc1,-3.2%,6,5%,10,6,?,-2

# 3 compounds already listed, sorted by molecular weight, lowest first.
SMILES,PINK1 expr mod,CtBP-E1A blk,Sfp inh,TRPV1 potentiator,Six1-Eya2 inh,D2 ag,D2 PAM
CNc1ccccc1-n1ccc(-c2ccccc2)n1,0.3%,6,-27%,-3,-1,-4.1,-7
Nc1nnc(SCn2nnc3ccccc3c2=O)s1,0.3%,.,-3%,1,0,-4.9,-4
C/C(=N\NC(=O)c1cc(O)ccc1O)c1cccc(NC(=O)c2cccc(Cl)c2)c1,8.1%,?,?,-11,-21,9.4,6

# Following part
SMILES,PINK1 expr mod,CtBP-E1A blk,Sfp inh,TRPV1 potentiator,Six1-Eya2 inh,D2 ag,D2 PAM
CCOC(=O)N1CCN(C(=O)c2cn(CC)c3ccc(S(=O)(=O)N(C)C4CCCCC4)cc3c2=O)CC1,0.9%,.,12%,19,-3,3.0,-14
O=C(NCCN1CCOCC1)c1ccc2c(c1)N(Cc1ccc(F)cc1)C(=O)CS2,2.1%,25,17%,-12,1,-3.3,-6
COc1cc(Br)cc(/C=N/NC(=O)Cc2ccccc2)c1O,-2.2%,3,.,.,?,-2.7,-10
Clc1ccc(-c2cn3cc(Br)ccc3n2)cc1Cl,3.5%,-6,-5%,2,22,1.8,0
COC/C=C/C1=CC(=O)C[C@H](c2ccc3c(c2)OCO3)C1,-0.9%,-9,.,-30,-2,-2.3,-11
CCCCC(=O)NC(=S)Nc1cccc(Cl)c1N1CCCCC1,?,28,10%,-5,11,0.0,-7
CN(C)c1nc(OCCNC(=O)COc2ccc(Cl)cc2Cl)nc(N2CCOCC2)n1,-0.3%,12,-13%,3,0,-1.9,-2
CC(OC(=O)c1ccc(-n2cnnn2)cc1)C(=O)NCc1ccccc1 (centres undefined),-3.8%,3,.,-4,0,2.2,19
